# FGF22 binding: binders of human FGF22 protein, primary screen, FGF22 synaptogenesis inhibitor project, biophysical, thermal shift, single point | 1.5% of 340,000 active | calls only at 9.99 µM | recombinant FGF22 thermal shift, SYPRO orange fluorescence; percent of sucrose octasulfate shift, DMSO zero;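 active means melting point raised past a set limit in the mean and every replicate; inconclusive means no clear call; three in four hits are not shown here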
# Target sequence (Q9HCT0 whole entry, looked up): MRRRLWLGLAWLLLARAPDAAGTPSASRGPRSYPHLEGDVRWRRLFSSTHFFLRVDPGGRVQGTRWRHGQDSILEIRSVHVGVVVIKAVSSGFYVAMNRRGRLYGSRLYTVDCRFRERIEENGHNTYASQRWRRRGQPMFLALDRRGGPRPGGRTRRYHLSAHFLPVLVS
# Beta apoptosis: inhibitors of cytokine-induced beta cell apoptosis, primary screen, luminescence | INS-1E cytokine-induced death, ATP luminescence, 48 h; percent of positive-control rescue, neutral wells zero | protection from apoptosis, % (test concentration not listed) | 0.8% of 300,000 active;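 active means all replicates at 75% or more, or half of them and the mean; inconclusive means half reach 75% but not the mean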;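 further: 0% = cytokine-treated negative control wells and 100% = positive control rescue; higher means more ATP so stronger rescue from cytokine killing; wells of about 40 µL received 100 nL stock; the first replicate is given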
# ALR inh: inhibitors of human ALR sulfhydryl oxidase, primary screen, biochemical, H2O2 detection, HRP-luminol luminescence, single point; FAD-linked sulfhydryl oxidase ALR (Homo sapiens), P55789; purified ALR, DTT oxidation; inhibition, % (concentration not given with the values); 3.8% of 290,000 active;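 active means mean and each replicate at 75% or more; inconclusive means only one of the two met; inactive means neither met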;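 further: stock transfer was 7.5 nL into about 7.5 µL; 0% = neutral wells and 100% = wells with inactivated enzyme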
# Target sequence (P55789 whole entry, looked up): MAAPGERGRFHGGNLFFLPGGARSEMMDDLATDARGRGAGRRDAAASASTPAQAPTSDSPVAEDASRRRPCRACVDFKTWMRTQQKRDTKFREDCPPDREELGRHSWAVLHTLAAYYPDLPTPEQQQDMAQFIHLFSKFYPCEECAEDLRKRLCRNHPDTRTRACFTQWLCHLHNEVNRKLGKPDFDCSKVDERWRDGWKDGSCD
# T cruzi repl: inhibitors of intracellular T. cruzi growth, primary screen, luminescence, NIH3T3 host cells; T. cruzi beta-gal in NIH3T3, 90 h; 1.4% of 300,000 active; AID 1885, 2009; inhibition, % (concentration not given with the values);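 active means mean inhibition across valid replicates above about 55%, limit read from the data; inconclusive means mean below that limit but half or more replicates reach it; inactive means mean below it, under half of replicates reach it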;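 further: signal also drops with host cell toxicity which is not excluded here; 0% = plate median of DMSO wells and 100% = zero luminescence signal; higher percent means less beta-gal luminescence so fewer parasites; stock transfer was 50 nL into about 50 µL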
# AF4-AF9 inh: inhibitors of AF4 peptide binding to AF9, primary screen, biochemical, AlphaScreen, biotin-AF4 peptide, FLAG-AF9, single point; 0.47% of 350,000 active; inhibition, % at 10 µM;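 active means every replicate reaching a set inhibition limit, whatever the replicate mean, cut at about 25% in these data; inconclusive means mean inhibition reaches that limit but some replicates miss it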;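 further: 0% = plate neutral control median and 100% = total signal loss; the record names both 10 and 1 µM as test concentration; the first replicate is given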
# Target sequence (P42568 whole entry, looked up): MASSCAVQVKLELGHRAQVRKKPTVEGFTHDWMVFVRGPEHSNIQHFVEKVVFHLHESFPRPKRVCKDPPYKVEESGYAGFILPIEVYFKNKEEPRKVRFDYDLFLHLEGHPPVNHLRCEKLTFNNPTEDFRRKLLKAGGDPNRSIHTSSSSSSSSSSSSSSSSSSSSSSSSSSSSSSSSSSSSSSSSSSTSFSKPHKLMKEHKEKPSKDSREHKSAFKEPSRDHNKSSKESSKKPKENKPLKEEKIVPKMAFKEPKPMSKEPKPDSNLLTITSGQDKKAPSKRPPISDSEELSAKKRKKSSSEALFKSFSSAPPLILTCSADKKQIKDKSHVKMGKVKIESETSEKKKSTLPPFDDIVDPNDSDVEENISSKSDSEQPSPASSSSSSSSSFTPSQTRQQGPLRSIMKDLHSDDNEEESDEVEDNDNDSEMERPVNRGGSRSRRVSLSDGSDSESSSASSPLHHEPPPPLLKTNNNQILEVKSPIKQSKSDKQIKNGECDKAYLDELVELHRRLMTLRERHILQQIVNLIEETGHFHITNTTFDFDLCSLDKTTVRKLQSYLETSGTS
# Calb FLC: C. albicans growth inhibition with fluconazole, primary screen, CaCi-2 strain, Alamar Blue fluorescence; C. albicans CaCi-2 (fluconazole-resistant clinical isolate) + fluconazole, 48 h; growth inhibition, % (no concentration beside the values); 0.57% of 300,000 active; AID 1979, 2009;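 active means most replicates above 75%; inconclusive means exactly half above 75%; inactive means most below 75%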;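 further: all wells also contain fluconazole at 8 µg/ml as a sub-toxic cotreatment; 0% = median of DMSO wells and 100% = median of geldanamycin control wells; wells of about 8 µL received 7.5 nL stock; the first replicate is given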
# RanGTP-Impb inh: inhibitors of RanGTP-importin-beta interaction, primary screen, biochemical, FRET, CFP-Ran, YFP-importin-beta, homogeneous | Ran GTPase (GTP-bound) - importin-beta complex | cell-free CFP-Ran/YFP-importin-beta FRET ratio | inhibition, % (test concentration not listed) | 1.1% of 300,000 active | AID 2216, 2009;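 active means most replicates above 15%; inconclusive means exactly half above 15%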;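 further: 0% = DMSO wells and 100% = Ran loaded with GDP instead of GTP; wells of about 40 µL received 100 nL stock; the first replicate is given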
# Ecoli rRNA inh: reduced GFP signal of wild-type E. coli, primary screen, bacterial rRNA inhibitor project, GFP/RFP fluorescence, OD600, single point; AID 720706, 2013; GFP signal change (wild-type ribosome), % (no concentration beside the values); E. coli WT GFP vs humanized-ribosome RFP mutants, 24 h; active compounds read low; DMSO median 0, no signal -100; 1.6% of 350,000 active;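 active means significant combined selectivity score with lowered wild-type GFP, culture density cut under 30%, mutant RFP and density less affected; inactive means any of these conditions unmet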; further: one replicate is shown; some compounds called inactive have numbers as strong as hits
# Ecoli rRNA inh OD600: second read-out of Ecoli rRNA inh, no call of its own (marks repeat the call); OD600 change, %; measured here: OD600 growth;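 optical density of the mix in the first replicate; 0 = DMSO median and -100 = no signal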
# Ecoli rRNA inh RFP: further read-out of Ecoli rRNA inh, marked with its call; RFP signal change, %; measured here: RFP humanized mutant strains;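 first replicate; 0 = DMSO median and -100 = no signal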
# * hit, by the source's call; i = inactive; ? = inconclusive; · = not tested or not shown.
Molecule,FGF22 binding,Beta apoptosis,ALR inh,T cruzi repl,AF4-AF9 inh,Calb FLC,RanGTP-Impb inh,Ecoli rRNA inh,Ecoli rRNA inh OD600,Ecoli rRNA inh RFP
COc1ccc(CNC(=O)COC(=O)c2sccc2C)cc1OC,i,0,2,·,-1.8,·,·,4,6,0.4
COC(=O)Cn1c(=O)c(=O)n(CC(=O)OC)c2ccccc21,i,3,-16,0,-2.1,26,-2.6,7,5,0.7
Cc1cccc(-c2nc3cc(NC(=O)C4CCCO4)ccc3o2)c1 (stereo not drawn),·,-2,-42,11,·,15,7.0,·,·,·
Cc1ccc(N(CC(=O)NCc2ccc(F)cc2)C(=O)c2ccco2)cc1C,i,-1,-3,-7,4.5,3,2.0,-1,6,0.2
O=C(Nc1ccccc1N1CCCC1)C1CCN(S(=O)(=O)c2ccc(F)cc2)CC1,i,-5,2,4,-0.6,-9,-3.6,-3,0,-1.6
O=S(=O)(c1ccc(Cl)nc1)N1CCc2ccccc21,i,0,-3,-4,-0.6,4,-1.5,6,1,1.0
CCCn1nnnc1NCc1ccc(OC)cc1OC,i,-4,-1,-7,-2.8,-8,5.5,10,7,4.5
CCS(=O)(=O)N1CCCC(C(=O)NCC2CCCO2)C1 (stereo not drawn),·,-7,4,-16,·,-1,0.2,·,·,·
O=C(c1ccccc1S(=O)(=O)NCC(O)COc1ccc([N+](=O)[O-])cc1)N1CCCCC1 (stereo not drawn),·,-3,-17,-7,·,-14,-3.9,-19,-6,-1.2
CC(C)CC(=O)NCCCCc1ccccc1,i,-4,-6,-10,-2.6,-6,-1.2,·,·,·

# Copied from the list:
# O=S(=O)(c1ccc(Cl)nc1)N1CCc2ccccc21 – Calb FLC: 4
# CCS(=O)(=O)N1CCCC(C(=O)NCC2CCCO2)C1 (stereo not drawn) – Calb FLC: -1
# CCCn1nnnc1NCc1ccc(OC)cc1OC – Ecoli rRNA inh OD600: 7
# Cc1ccc(N(CC(=O)NCc2ccc(F)cc2)C(=O)c2ccco2)cc1C – Calb FLC: 3
# Cc1cccc(-c2nc3cc(NC(=O)C4CCCO4)ccc3o2)c1 (stereo not drawn) – Calb FLC: 15

# (next part)
Molecule,FGF22 binding,Beta apoptosis,ALR inh,T cruzi repl,AF4-AF9 inh,Calb FLC,RanGTP-Impb inh,Ecoli rRNA inh,Ecoli rRNA inh OD600,Ecoli rRNA inh RFP
O=[N+]([O-])c1ccc(N2CCSCC2)cc1,i,2,-5,-14,4.3,0,2.4,7,1,0.1
O=C(O)CCCCOn1ccnc1,i,-3,·,-8,0.0,2,-1.1,19,17,0.9
COc1cccc(NC(=O)CN(C)CC(=O)Nc2ccc(Br)cc2)c1,i,-2,-11,6,-2.7,1,6.5,-34*,-15*,-3.9*
CCCOP(=O)(c1ccc(N(C)C)cc1)C(O)c1cc(OC)ccc1OC (stereo not drawn),i,1,0,-18,-2.0,-8,1.2,7,10,-0.7
COc1cccc(/C=N/NC(=O)c2nnn(-c3nonc3N)c2C(C)C)c1OCc1ccc(F)cc1,·,-9,-1,21,·,5,1.3,·,·,·
COC(=O)c1ccc(COc2cc([N+](=O)[O-])cc3cccnc23)cc1,·,-1,·,6,-54,5,7.4,7,9,0.4
Cc1ccc(CNc2ccc3c(c2)OCO3)c(C)c1,·,6,-37,53,·,-44,2.8,·,·,·
CCCC[C@@H]1CNC(=O)C(=O)N1CCc1cccc2ccccc12,·,-6,1,8,·,-2,2.6,·,·,·
Cc1nn(-c2ccccc2)c(C)c1C(=O)OCC(=O)N(C)c1ccccc1,i,10,-4,·,-0.6,·,·,-20,-13,-0.8
O=C(Nc1ccccc1)N(CCN1CCOCC1)Cc1ccccc1F,·,-4,0,-2,·,·,?,·,·,·

# 4 entries from above, set out differently:
# Below each compound – FGF22 binding | Beta apoptosis | ALR inh | T cruzi repl | AF4-AF9 inh | Calb FLC | RanGTP-Impb inh | Ecoli rRNA inh | Ecoli rRNA inh OD600 | Ecoli rRNA inh RFP
O=C(Nc1ccccc1)N(CCN1CCOCC1)Cc1ccccc1F
→ · | -4 | 0 | -2 | · | · | ? | · | · | ·
CCCC[C@@H]1CNC(=O)C(=O)N1CCc1cccc2ccccc12
→ · | -6 | 1 | 8 | · | -2 | 2.6 | · | · | ·
COC(=O)c1ccc(COc2cc([N+](=O)[O-])cc3cccnc23)cc1
→ · | -1 | · | 6 | -54 | 5 | 7.4 | 7 | 9 | 0.4
COc1cccc(/C=N/NC(=O)c2nnn(-c3nonc3N)c2C(C)C)c1OCc1ccc(F)cc1
→ · | -9 | -1 | 21 | · | 5 | 1.3 | · | · | ·

# (listing goes on)
Molecule,FGF22 binding,Beta apoptosis,ALR inh,T cruzi repl,AF4-AF9 inh,Calb FLC,RanGTP-Impb inh,Ecoli rRNA inh,Ecoli rRNA inh OD600,Ecoli rRNA inh RFP
COC(=O)c1cc[n+](CC(=O)c2ccccc2)cc1,·,-2,-11,0,·,7,7.2,·,·,·
CN1CCN(/N=C/c2nc(-c3ccccc3Cl)n3ccccc23)CC1,·,-2,98*,19,·,-2,?,·,·,·
Cc1cc(C)c2cc(CN(CCO)C(=O)Nc3ccc(F)cc3)c(=O)[nH]c2c1,·,-11,2,34,·,-4,4.2,·,·,·
Cc1ccnc(NC(=O)c2ccc3c(c2)C(=O)N(CC2CCCO2)C3=O)c1 (stereo not drawn),i,-25,-11,-12,-0.4,-17,0.3,-3,1,3.0
Cc1ccc(NC2=C/C(=N/S(=O)(=O)c3cccs3)c3ccccc3C2=O)cc1C,i,80*,·,-44,-4.2,0,-1.3,13,3,-3.2
CCN(CC)S(=O)(=O)c1ccc(-c2nnc(SCC(=O)N3c4ccccc4CC3C)n2CC)cc1 (stereo not drawn),·,·,-1,24,·,-3,-4.3,·,·,·
COc1cccc(NC(=O)CN(C)C(=O)CSC(=S)N2CCCC2)c1,i,-1,-15,-7,6.9,-4,4.9,0,-1,-0.5
CCOc1ccc(Nc2c3ccccc3nc3ccccc23)cc1,i,79*,·,50,37*,61,54*,-44,-76,-22
O=S(=O)(NCCc1ccncc1)c1cc(Br)ccc1F,·,-2,-6,-10,·,-22,2.0,·,·,·
Cc1cc(C(C#N)c2ccccc2)n2ncnc2n1 (stereo not drawn),·,-2,62,22,·,·,4.2,·,·,·
COc1ccc(OCC(=O)Nc2ccc(S(=O)(=O)N(C)c3ccccc3)cc2)cc1,i,·,·,5,-1.2,-2,?,-23,-25,-4.0
C/C(=N/Nc1nc(-c2ccccc2F)nc2ccccc12)c1ccccc1O,i,13,10,48,5.3,0,5.0,8,-4,0.8
Cc1cc(C)nc(N=Nc2c(O)n(Cc3ccc(Cl)cc3)c3ccccc23)n1,·,1,-6,28,·,-9,-1.2,·,·,·
CCc1ccc(NC(=O)C(=O)NNC(=O)c2cccc(OC)c2)cc1,i,0,9,2,-6.5,-2,4.7,-35,-49,2.3
COc1ccc(CN2CCC(N3CC(C)OC(C)C3)CC2)c(OC)c1OC (stereo not drawn),i,-7,-3,3,-0.3,-14,1.6,15,12,5.0
O=C(c1ccccc1)N(Cc1cccc(Br)c1)C1CCS(=O)(=O)C1 (stereo not drawn),i,-2,-3,-1,-0.4,27,?,-2,3,-2.6
Cc1ccccc1CC1CCN(CCCNC(=O)Nc2ccccc2)CC1,i,-7,-4,7,6.5,0,-0.6,6,3,1.6
O=C(CSc1ccc(-c2ccco2)nn1)Nc1ccc(F)cc1,i,27,22,0,-1.8,-2,?,7,5,2.0
Cn1cccc1-c1nc2ccc([N+](=O)[O-])cc2[nH]1,i,4,4,-3,10,-6,-1.4,-49,-74,-18
Cc1cc(NS(=O)(=O)c2cccs2)no1,·,-3,·,-8,·,-10,-2.4,·,·,·
COc1ccc(N(C(=O)c2snc(C(N)=O)c2N)C(C(=O)NC2CCCC2)c2cccs2)cc1OC (stereo not drawn),i,-2,3,8,1.7,-4,-3.2,0,3,-3.6
COC(=O)c1cc2oc3ccccc3c2n1Cc1ccccn1,·,6,-4,16,·,8,1.0,-44*,-29*,-1.9*
COc1ccc(/C=C2\SC(=S)N(N3C(=O)CCC3=O)C2=O)cc1O,·,·,31,-8,-3.1,-1,-3.4,14,25,3.1
Cc1cccc(NC(=S)NC(=O)CCc2ccccc2)c1C,·,·,-2,15,·,-6,-0.6,·,·,·
CCOC(=O)Nc1ccc(NC(=O)OCC)cc1,i,-1,·,8,4.8,-7,1.0,14,17,6.0
O=C(NCCCNc1ccc(C(F)(F)F)cc1[N+](=O)[O-])c1ccc(Cl)cc1,·,-4,-19,-8,·,-6,4.2,·,·,·
CCn1c(SCC(=O)N(C)c2ccccc2)nc2c([nH]c3ccccc32)c1=O,i,-3,-10,21,-2.7,1,-3.9,10,17,0.0
Brc1csc(C=Nc2ccc3c(c2)OCCOCCOCCOCCO3)c1,·,4,100*,-6,·,35,?,·,·,·
COc1ccc2c(c1)c(CC(=O)OCC(N)=O)c(C)n2C(=O)c1ccc(Cl)cc1,i,-7,-1,0,-7.1,-5,2.6,-11,-5,-4.6
CSc1ncccc1C(=O)Nc1ccc2nc(C)sc2c1,i,·,·,-5,-8.3,6,2.3,6,-1,5.5
N#Cc1nc(-c2ccc(F)cc2)oc1N1CCC(C(N)=O)CC1,i,·,·,-16,1.2,2,1.2,-1,-16,-2.4
CCOC(=O)C(CC)Sc1nc2c(cnn2-c2ccccc2)c(=O)[nH]1 (stereo not drawn),i,4,-27,2,-6.8,17,3.6,-8,-1,4.3
COc1cc(OC)cc(-n2c3nc4ccccc4nc3c3c(=O)n(CC4CCCO4)cnc32)c1 (stereo not drawn),·,-6,-5,13,·,6,0.8,·,·,·
Cc1ccc(OCC(=O)Nc2cc(C(C)(C)C)on2)cc1C,i,-8,-1,3,-6.5,-8,4.0,-10,-4,-0.5
O=C1NC2NC(=O)N(C(Cc3ccccc3)C(=O)O)C2N1 (stereo not drawn),·,-2,-5,2,·,-4,-3.3,·,·,·
Cc1cccc(NC(=O)c2ccc3c(Cl)c4c(nc3c2)CCCC4)n1,i,-4,-2,-21,-1.0,-1,?,15,10,0.3
Clc1cccc(CNc2nnnn2-c2ccccc2)c1,·,-8,-3,·,·,-9,-0.7,·,·,·
CCOc1cc(S(=O)(=O)NC2CCCCCC2)ccc1F,·,6,3,3,·,-3,1.9,·,·,·
CC(=O)c1ccc(S(=O)(=O)N2CCN(C(=O)c3ccccc3Cc3ccccc3)CC2)cc1,i,·,·,-8,0.8,7,0.9,-5,-2,-5.1

# High-throughput results from PubChem.

# This is a subset; the hit share may differ from the screen's.
